Screening results as filed in PubChem.
H5N1 antiviral: MDCK cell protection from H5N1 avian flu. 96,000 tested, 0.07% active. inhibition, % at 50 µM. cytopathic effect, luminescence, 72 h; active compounds read high; no value below 0 was filed and about half of the inactive calls have no number; reference of the scale not given here. AID 740; in the data active = inhibition above about 25%
An asterisk follows results filed as active. Only part of the results is shown; the hit share may differ from the screen's.

Screening CCc1cccc2c(SC(C)C(=O)NCC3CCCO3)nc(-c3ccccc3)nc12 (stereo unspecified) returned H5N1 antiviral 0.9.
For CCOc1ccccc1NC(=O)c1cccc(NC(=O)c2ccco2)c1 the results were H5N1 antiviral inactive.
For CCCc1cc(=O)[nH]c(SCC(=O)Nc2ccccc2C#N)n1 the results were H5N1 antiviral 0.5.
CCCC(C)C(=O)Nc1nc(C)c(-c2csc(Nc3ccccc3OC)n2)s1 (stereo unspecified) was read as H5N1 antiviral 0.1.
Screening CS(=O)(=O)c1cccc(C(=O)NCc2ccc(F)cc2)c1 returned H5N1 antiviral 0.5.
CC(C)(Oc1ccc(Cl)cc1)C(=O)NCc1ccncc1 was read as H5N1 antiviral 1.6.
`CC1(C)CC(=O)C(C=NCCO)=C(O)C1` gave H5N1 antiviral 0.6.
For O=C1CC(c2ccc(S(=O)(=O)N3CCCCC3)cc2)CN1 (stereo unspecified) the results were H5N1 antiviral 0.4.
`COc1ccc(CN(C2CCCC2)S(=O)(=O)c2ccc(-n3cnnn3)c(OC)c2)cc1OC` gave H5N1 antiviral 1.1.
Screening Cn1ncc(Br)c1C(=O)NCc1cccs1 returned H5N1 antiviral 1.8.
`CS(=O)(=O)c1cnc(-c2ccccc2)nc1Oc1ccc(Cl)cc1` gave H5N1 antiviral 0.6.
`Cc1ccc(CNc2ccc(O)cc2)cc1` gave H5N1 antiviral 0.9.
For CCN(CC(=O)Nc1ccc2c(c1)OCCO2)c1ccc(S(=O)(=O)N2CCOCC2)cn1 the results were H5N1 antiviral inactive.
For COC(=O)c1sccc1Oc1ccc(F)cc1[N+](=O)[O-] the results were H5N1 antiviral inactive.
For CCCCn1c(SCC(=O)Nc2nccs2)nc2ccccc2c1=O the results were H5N1 antiviral 0.3.
CCOC(=O)Cn1c(=O)oc2cc(S(=O)(=O)NCCCc3ccccc3)ccc21 was read as H5N1 antiviral 0.1.
Screening Cc1ccnc(NS(=O)(=O)c2cccs2)c1 returned H5N1 antiviral 0.1.
Screening CCOC(=O)c1cc(C(=O)c2cc(F)ccc2O)coc1=N returned H5N1 antiviral inactive.
For Cc1cccc(N(C(=O)Cc2cccs2)C(C(=O)NC2CCCC2)c2ccsc2)c1 (stereo unspecified) the results were H5N1 antiviral 3.0.
Screening COc1ccc(C(CC(=O)O)NC(=O)c2cccs2)cc1 (stereo unspecified) returned H5N1 antiviral inactive.
`Cc1ccccc1C(=O)Nc1nncs1` gave H5N1 antiviral 1.1.
For Cc1nn(Cc2ccc(Cl)c(Cl)c2)c(C)c1NC(=O)c1cc(C2CC2)on1 the results were H5N1 antiviral 1.2.
For CC(Sc1nc2ccccc2o1)C(=O)O (stereo unspecified) the results were H5N1 antiviral inactive.
Screening CC1CCN(C(=O)N2c3ccccc3Sc3ccccc32)CC1 returned H5N1 antiviral 6.0.

Structures above that have a COOH group:
Screening COc1ccc(C(CC(=O)O)NC(=O)c2cccs2)cc1 (stereo unspecified) returned H5N1 antiviral inactive.
For CC(Sc1nc2ccccc2o1)C(=O)O (stereo unspecified) the results were H5N1 antiviral inactive.

New compounds follow.
`N#CCn1nnc(-c2ccc3c(c2)OCO3)n1` gave H5N1 antiviral 0.1.
For CCOCC(=O)Nc1ccccc1C(=O)OCC the results were H5N1 antiviral inactive.
For COC(=O)C1=C(C)Nc2nnnn2C1c1ccco1 (stereo unspecified) the results were H5N1 antiviral 0.5.
NC(=O)c1ccc(NC(=O)C2CCCO2)cc1 (stereo unspecified) was read as H5N1 antiviral 1.4.
COC(=O)c1cc(NC(=O)C2COc3ccccc3O2)ccc1Cl (stereo unspecified) was read as H5N1 antiviral inactive.
Screening CCOC(=O)N1CCC(NC(=O)CC(NS(=O)(=O)c2ccc(Cl)cc2)c2ccco2)CC1 (stereo unspecified) returned H5N1 antiviral inactive.
`O=C(CN(CCc1ccccc1)C(=O)CNS(=O)(=O)c1ccccc1)NCc1ccco1` gave H5N1 antiviral 0.0.
O=C(NC1(C(=O)NC2CCCCC2)CCCCC1)c1ccccn1 was read as H5N1 antiviral 1.4.
Screening O=C(CSc1nnc(CNc2ccc(F)cc2)n1Cc1ccccc1)N1CCOCC1 returned H5N1 antiviral 0.4.
`Cc1ccc(N2CC(C(=O)Nc3nnc(C(C)C)s3)CC2=O)cc1` (stereo unspecified) gave H5N1 antiviral inactive.
Screening CCOc1ccc(N2C(=O)c3ccc(C(=O)OCc4c(C)noc4C)cc3C2=O)cc1 returned H5N1 antiviral 0.5.
O=C(Nc1ccc(N2CCOCC2)c2nonc12)C1CCCC1 was read as H5N1 antiviral inactive.
CCN(CC)C(=O)c1c(C)nc2ccccn12 was read as H5N1 antiviral inactive.
`COc1ccc(N(C(=O)C2CCCCC2)C2C=CS(=O)(=O)C2)c(OC)c1` (stereo unspecified) gave H5N1 antiviral 2.2.
Screening COc1cc2c3c(c1)/C(=C1/SC(NC(C)=O)=NC1=O)C(=O)N3C(C)(C)C=C2C returned H5N1 antiviral 0.1.
`Cc1ccccc1N1C(N)=NC(N)=NC1(C)C` gave H5N1 antiviral 0.9.
Screening CCn1c(O)c(C2=NCCCC2)c2ccccc21 returned H5N1 antiviral 4.9.
COc1cc2c(cc1NC(=O)CSc1nnnn1-c1ccccc1)oc1ccccc12 was read as H5N1 antiviral inactive.
Cc1ccc(-n2ncc3c(=O)n(CC(=O)NCc4ccco4)cnc32)cc1C was read as H5N1 antiviral inactive.
COc1ccc(OC)c(-c2cc(C(=O)Nc3cccc(Cl)c3)no2)c1 was read as H5N1 antiviral 1.5.
Screening COc1ccc(/C(N)=N/OC(=O)c2cccc([N+](=O)[O-])c2)cc1 returned H5N1 antiviral inactive.
`CCCCN(CCCC)CC(O)CN1C(=O)NC(C)(C)C1=O` (stereo unspecified) gave H5N1 antiviral 1.4.
Screening CCOC(=O)C1SC2(C(F)(F)F)CC1(O)c1c(C)cc(C)nc1O2 (stereo unspecified) returned H5N1 antiviral inactive.
For Cc1cc(NC(=O)C2C3C=CC(C3)C2C(=O)O)no1 (stereo unspecified) the results were H5N1 antiviral 0.2.
COc1ccccc1NC(=O)N(Cc1cc2cc(OC)c(OC)cc2[nH]c1=O)CC1CCCO1 (stereo unspecified) was read as H5N1 antiviral inactive.
For Clc1ccccc1-c1nnc2sc(-c3ccncc3)nn12 the results were H5N1 antiviral inactive.
For N#Cc1ccc(-c2ccc(OCC(O)Cn3nnc4ccccc43)cc2)cc1 (stereo unspecified) the results were H5N1 antiviral 0.8.
Screening CCCC(C(=O)NC1CCCC1)N(C(=O)Cn1nnc(-c2ccc(C)o2)n1)c1ccccc1OC (stereo unspecified) returned H5N1 antiviral 0.2.
Screening CCCc1nc2c(nnn2Cc2ccccc2)c(=O)[nH]1 returned H5N1 antiviral 1.1.
For Cc1ccc(N2C(=O)N(CC(=O)NCc3ccc(Cl)cc3)C(=O)C2C)cc1 (stereo unspecified) the results were H5N1 antiviral inactive.
For COc1cccc(C(=O)N=c2sc3c(C)ccc(OC)c3n2C)c1 the results were H5N1 antiviral inactive.
Screening O=C(NC(NC(=S)Nc1ccccc1C(=O)O)C(Cl)(Cl)Cl)c1cccc([N+](=O)[O-])c1 (stereo unspecified) returned H5N1 antiviral 0.3.
`COc1cccc(C(=O)Nc2ccc(NC(=O)C(C)(C)C)cn2)c1` gave H5N1 antiviral inactive.
`CCC(CC)NC(=O)CCc1nc2ccccc2c(=O)[nH]1` gave H5N1 antiviral inactive.
`CCOC(=O)c1[nH]c(C)c(C)c1C` gave H5N1 antiviral 0.2.
Screening O=C(NCCOC12CC3CC(CC(C3)C1)C2)c1cccc(Br)c1 returned H5N1 antiviral 3.2.

The final 2 compounds of the section before open the next one.
`CCOC(=O)c1[nH]c(C)c(C)c1C` gave H5N1 antiviral 0.2.
Screening O=C(NCCOC12CC3CC(CC(C3)C1)C2)c1cccc(Br)c1 returned H5N1 antiviral 3.2.
Screening COc1cccc(C(=O)Nc2ccccc2N2CCOCC2)c1 returned H5N1 antiviral 2.2.
`CCN(CCCNC(=O)Cn1ncc2c(=O)oc3ccccc3c21)c1cccc(C)c1` gave H5N1 antiviral inactive.
[O-]C1=N/[N+](=C/c2ccc(Cl)c(Cl)c2)CC1 was read as H5N1 antiviral inactive.
`Cn1c2c(c(=O)n(C)c1=O)CN(CC1CCCO1)CN2` (stereo unspecified) gave H5N1 antiviral 0.3.
For O=C1N/C(=C/c2ccc(N3CCOCC3)cc2)C(=O)N1Cc1ccc(F)cc1 the results were H5N1 antiviral 0.7.
`COCCNC(=O)CN(c1cc(C(F)(F)F)ccc1Cl)S(C)(=O)=O` gave H5N1 antiviral 0.4.
For Cc1cccc(CCN(C(=O)Cc2cccs2)C(C(=O)NC2CCCCC2)c2cccnc2)c1 (stereo unspecified) the results were H5N1 antiviral inactive.
Screening Clc1ccc(-c2csc(N3CCC(c4ccccc4)C3)n2)cc1 (stereo unspecified) returned H5N1 antiviral inactive.
Cc1cc(Cl)c(S(N)(=O)=O)cc1OCC(N)=O was read as H5N1 antiviral 0.5.
`COc1cc(C(=O)OCC(=O)Nc2c(F)c(F)c(F)c(F)c2F)cc(OC)c1OC` gave H5N1 antiviral 0.4.
Screening O=C(NC1CCCC1)C(NS(=O)(=O)c1cccc2nsnc12)c1ccccc1 (stereo unspecified) returned H5N1 antiviral 0.1.
For CC(=O)c1c(C)[nH]c(C(=O)NCc2cccs2)c1C the results were H5N1 antiviral 0.1.
Cc1c(Br)c(C(F)(F)F)nn1CC(=O)NCCN1CCOCC1 was read as H5N1 antiviral 0.7.
COc1ccc(N2Cc3cccc(C(=O)N4CCOCC4)c3C2=O)cc1 was read as H5N1 antiviral 0.9.
Cc1ccc(S(=O)(=O)N(C)C2(C)CCS(=O)(=O)C2)cc1 (stereo unspecified) was read as H5N1 antiviral inactive.
`c1ccc(Cn2nnnc2CN2CCOCC2)cc1` gave H5N1 antiviral 0.2.
Screening O=C(c1ccccc1)N1CCN(C(=O)C23CC4CC(CC(C4)C2)C3)CC1 returned H5N1 antiviral 0.8.
`Cc1onc(-c2c(F)cccc2Cl)c1C(=O)NCCc1ccc(S(N)(=O)=O)cc1` gave H5N1 antiviral 0.1.
Screening CCc1nnc(NC(=O)Cn2nc(-c3ccc(OC)c(OC)c3)ccc2=O)s1 returned H5N1 antiviral 0.5.
For Cc1ccc(-n2nc3c(c2NC(=O)CCC2CCCCC2)CS(=O)C3)cc1 (stereo unspecified) the results were H5N1 antiviral inactive.
`CC(C)n1c(=S)[nH]c2c1c(=O)[nH]c(=O)n2C` gave H5N1 antiviral 0.2.
For Cc1cc(C)cc(N(CC(=O)N2CCn3c2nc2ccccc23)S(=O)(=O)c2c(C)noc2C)c1 the results were H5N1 antiviral 4.1.
Cc1c(C(=O)NC(C)CN2CCCCC2)oc2ccccc12 (stereo unspecified) was read as H5N1 antiviral inactive.
COC(=O)c1c(C)[nH]c(C)c1-c1ccccc1 was read as H5N1 antiviral 0.8.

5 structures from above, ordered by length of the SMILES, high to low:
Screening O=C(c1ccccc1)N1CCN(C(=O)C23CC4CC(CC(C4)C2)C3)CC1 returned H5N1 antiviral 0.8.
For Cc1ccc(-n2nc3c(c2NC(=O)CCC2CCCCC2)CS(=O)C3)cc1 (stereo unspecified) the results were H5N1 antiviral inactive.
Cc1ccc(S(=O)(=O)N(C)C2(C)CCS(=O)(=O)C2)cc1 (stereo unspecified) was read as H5N1 antiviral inactive.
`CC(C)n1c(=S)[nH]c2c1c(=O)[nH]c(=O)n2C` gave H5N1 antiviral 0.2.
Cc1c(C(=O)NC(C)CN2CCCCC2)oc2ccccc12 (stereo unspecified) was read as H5N1 antiviral inactive.

The results go on.
CCOc1cc(NC(=O)C2CC2)c(OCC)cc1NC(=O)c1ccccn1 was read as H5N1 antiviral inactive.
For CCOC(=O)c1[nH]c2cc(OC)c(OC)cc2c1NC(=O)c1nonc1C the results were H5N1 antiviral 0.4.
CCOc1ccc2[nH]c(C)cc(=O)c2c1 was read as H5N1 antiviral 1.9.
Screening Cc1cc(=O)oc2cc(OCC(=O)Nc3nnc(C(C)C)s3)ccc12 returned H5N1 antiviral 0.5.
Screening CC(c1ccccc1)C1CC(=O)N(C2CCCCC2)C1=O (stereo unspecified) returned H5N1 antiviral 0.2.
For COc1ccc(-c2nnc(SCC(=O)c3[nH]c(C)c(C(C)=O)c3C)o2)cc1 the results were H5N1 antiviral inactive.
`COCCn1nnnc1C(c1ccc(OC)cc1OC)N1CCN(c2ccccc2F)CC1` (stereo unspecified) gave H5N1 antiviral inactive.
For CCCCOCCCNC(=O)N[C@H](C(=O)OC)C(C)C the results were H5N1 antiviral inactive.
Screening COc1ccc(OC)c(NC(=O)C2CCC(CNc3c(N4CCC(C)CC4)c(=O)c3=O)CC2)c1 (stereo unspecified) returned H5N1 antiviral inactive.
Cc1noc(C)c1S(=O)(=O)N1CCC(C(=O)NCCC2=CCCCC2)CC1 was read as H5N1 antiviral inactive.
Screening CCCSc1nc2c(c(=O)[nH]c(=O)n2C)n1C returned H5N1 antiviral 0.2.
`COc1cccc(C(=O)n2c(SC)nc3cc4c(cc32)OCCO4)c1` gave H5N1 antiviral inactive.
For CCc1nnc(SCC(=O)N2CCCc3ccccc32)nc1CC the results were H5N1 antiviral 2.1.
FC(F)(F)c1nc(-c2cccnc2)ncc1-c1nnnn1-c1ccccc1 was read as H5N1 antiviral 0.3.
COc1c(Cl)cc(-c2noc(C)c2C(=O)NCc2ccccc2)cc1Cl was read as H5N1 antiviral inactive.
CCCCN(CC)S(=O)(=O)c1ccc(C(=O)Nc2nnc(-c3ccccc3Cl)o2)cc1 was read as H5N1 antiviral inactive.
`c1coc(Cn2nnnc2CN2CCN(C3CCCCC3)CC2)c1` gave H5N1 antiviral 0.4.
Screening CCOc1ccc(CN2CCC(=O)NC2=O)cc1 returned H5N1 antiviral inactive.
CN(C)CCCNCC(=O)Nc1ccccc1N1CCOCC1 was read as H5N1 antiviral inactive.
`Cc1[nH]nc2c1C(Cc1ccccc1)C(C#N)=C(N)O2` (stereo unspecified) gave H5N1 antiviral inactive.

Copied from the entries so far (four entries):
CCOc1cc(NC(=O)C2CC2)c(OCC)cc1NC(=O)c1ccccn1 was read as H5N1 antiviral inactive.
For CCOC(=O)c1[nH]c2cc(OC)c(OC)cc2c1NC(=O)c1nonc1C the results were H5N1 antiviral 0.4.
CCOc1ccc2[nH]c(C)cc(=O)c2c1 was read as H5N1 antiviral 1.9.
Screening Cc1cc(=O)oc2cc(OCC(=O)Nc3nnc(C(C)C)s3)ccc12 returned H5N1 antiviral 0.5.
